Calb biofilm kill: mixtures killing C. albicans biofilm | C. albicans biofilm persisters + clotrimazole, fluorescence viability; primary screen in compound mixtures of four per well | inhibition, % at 7.6 µM | 120,000 tested, 0.02% active;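 active = inhibition above 30.3% in the primary screen of four-compound pools, then above 30% when the compound was retested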;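 also: compounds exposed to preformed 24 h biofilms for 48 h; the number belongs to the whole pool; some results filed as inactive read as strong as hits; inactives centre near 12; 0% = biofilm with clotrimazole alone and 100% = kill control; retested singly at about 60 µM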
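Incubation: 24 h biofilm formation, then 48 h compound exposure, 37 °C | Material: C. albicans biofilms | Buffer or medium: RPMI/MOPS medium, pH 7.0 | Measured by: 2-h Alamar Blue fluorescence, 535/590 nm excitation/emission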
The depositor's hits bear a star. The list is partial. The share of hits here may be higher or lower than overall.

Structure	Calb biofilm kill
Cc1ccc(C2(c3noc(CN4CCC(c5ccncc5)CC4)n3)CCCC2)cc1	9.9
O=C(N/N=C/c1ccccc1Cl)c1n[nH]c2c1CCCC2	9.7
Nc1nnc(CC(=O)Nc2ccccc2)s1	2.4
CN1C[C@@H]2C[C@@H](c3ccc(C#CC(C)(C)O)s3)N3CCC[C@@]23C1=O	-0.2
O=c1c(-c2ccc(O)cc2)coc2cc(OC3OC(CO)C(O)C(O)C3O)cc(O)c12 (centres undefined)	0.9
COc1ccc(C(=O)NN/C(=N/S(=O)(=O)c2ccc(C)cc2)c2ccccc2)cc1	16.1
COc1ccc(-c2cc(-c3ccc(OC)cc3)c(C#N)c(SC)n2)cc1	5.4
O=C1NCCN(Cc2ccc(Cl)c(F)c2)C1CC(=O)N1CCCO1 (centres undefined)	2.4
O=C(Nc1ccn(Cc2ccccc2)n1)c1ccc2c(c1)OCO2	-3.4
COCC(C)NC(=O)c1ccc(CN2CCc3ccccc3C2)cc1 (centres undefined)	15.4
COc1ccc(-c2csc(Nc3ccc(S(=O)(=O)Nc4cc(C)on4)cc3)n2)cc1	12.8
CC(CN1CCN(C)CC1)OC(=O)c1ccc(F)cc1 (centres undefined)	3.1
CCN(CC)C(=O)c1ccc(NS(=O)(=O)c2ccc(/C=C/C(=O)O)cc2)cc1	3.5
CC(=O)c1sc(-c2ccccc2)cc1NS(=O)(=O)c1ccc(C)cc1	15.5
COc1ccc(S(=O)(=O)N2CCOCC2)cc1NC(=O)c1ccc2c(c1)OCCO2	1.5
COc1ccc(CN(C)CC(=O)Nc2ccc(N3CCOCC3)cc2)cc1OC	10.0
CCC1Oc2ccccc2N(CC(=O)NCc2ccco2)C1=O (centres undefined)	16.9
COc1ccc(NS(=O)(=O)c2cc(NC(=O)c3cccs3)ccc2N2CCCC2)cc1	12.3
COC(=O)c1ccc(CSCC(=O)Nc2ccccc2)cc1	9.7
Nc1nc(SCC(=O)NCCN2CCOCC2)nc2sc3c(c12)CCC3	7.5
O=C(CCc1nnc(-c2ccccc2)o1)NCc1c(F)cccc1F	-5.6
CC(NC(=O)c1ccc(Cn2cc([N+](=O)[O-])cn2)cc1)c1ccccc1 (centres undefined)	-2.2
CCOc1cccc(-c2nn(-c3ccccc3)cc2/C=C(/C#N)C(=O)NCCCn2ccnc2)c1	14.9
CCCCC12CN3CC(C)(CN(C1)C31C(=O)N(C)c3ccc(C)cc31)C2=O (centres undefined)	4.8
CONc1nc(NC(C)(C)C)nc(OCC#N)n1	11.9
O=C(C1=C[C@@H](c2ccccc2)C[C@@H](OCc2ccc(CO)cc2)O1)N1CCOCC1	18.9
CCCCOc1ccc(C(=O)N/C(=C/C=C/c2ccccc2)C(=O)NCCCO)cc1	8.8
NCCCC[C@@H]1NC(=O)[C@H](CCC(=O)O)NC(=O)c2cc([N+](=O)[O-])cc(I)c2OCC[C@@H](C(N)=O)NC1=O	11.6
Cc1cc(/C=C(\C#N)C(N)=O)c(C)n1-c1ccc(N2CCOCC2)c([N+](=O)[O-])c1	19.3
Cc1ccc(-c2cn(-c3ccccc3)c3[n+]2CCCS3)cc1	8.2

(next part)
Structure	Calb biofilm kill
Cn1nnnc1SCC(=O)Nc1cc(C(F)(F)F)ccc1N1CCOCC1	-13.4
Cc1ccc(NC(=O)CCC(=O)c2cccs2)c(O)c1	18.3
O=C(O)/C=C/C(=O)Nc1ccc2c(c1)NC(=O)CO2	13.4
CC(C)(C)c1nnc(NC(=O)c2cccnc2)s1	20.4
Cc1nn(C(C)C)c(C)c1[C@@H]1C[C@H]2CN(Cc3cccc(Cl)c3)C(=O)[C@]23CCCN13	14.8
CCOC(=O)c1ccccc1C(=O)N1CCOCCOCCOCC1	18.4
Cc1nc(NS(=O)(=O)c2ccccc2)sc1C(=O)N/N=C/c1ccccc1	19.8
OCCN1CCN(CCCc2c3c(cc4c2CCC4)CCC3)CC1	11.6
Fc1ccccc1-c1nc(NCCCN2CCOCC2)c2ccccc2n1	-1.9
Cc1cc(C)n(/C(=C/N(C)C)C(=O)c2ccccc2)n1	5.0
COc1ccc2c(c1)C1=NN(/C(C)=C/C(C)=O)C(c3cccc(F)c3)C1CC2 (centres undefined)	12.0
O=C(COC(=O)CCc1ccccc1)Nc1cc(S(=O)(=O)N2CCOCC2)ccc1N1CCCC1	8.8
CCCCSC1=N/C(=C/c2ccsc2)C(=O)N1c1ccccc1	-4.3
O=C(/C=C/c1ccco1)N1CCN(S(=O)(=O)c2ccc(F)c(F)c2F)CC1	13.8
Cc1ccnc(NS(=O)(=O)c2ccc(NC(=O)/C=C/c3ccccc3)cc2)n1	22.2
CCC/C(=N/NC(=O)c1ccccc1Cl)c1ccccc1	14.9
CCN(C(=O)COc1cccc2cccnc12)C1CCS(=O)(=O)C1 (centres undefined)	20.1
O=C(OCc1ccc(F)cc1)c1ccc2ccccc2n1	6.8
CCN(CC)CCn1c(=O)n(-c2ccc(Cl)cc2)c(=O)c2c3c(sc21)CN(C)CC3	22.3
CCc1ccc(OCCn2cccn2)cc1	7.2
CCOC(=O)Cc1csc(NC(=O)COc2cccc(C)c2)n1	8.5
CCn1c(=O)c(C(=O)NNS(=O)(=O)c2ccc(C)cc2)c(O)c2ccccc21	14.5
COc1ccc(NC(=O)CNc2cc(S(=O)(=O)N3CCOCC3)ccc2NCC2CCCO2)cc1 (centres undefined)	9.0
COc1ccccc1CNC(=O)CSc1ccc(-c2ccccn2)nn1	14.3
COc1ccc(C(CC(=O)O)NC(=O)Cc2ccccc2)cc1OC (centres undefined)	4.0
CC1CN(C2CCN(S(=O)(=O)c3ccccc3)CC2)CC(C)O1 (centres undefined)	11.8
Cc1ccc2c3c(cccc13)-c1ccccc1C2=O	24.0
COCCNC(=O)Cn1c(=O)n(CCC(=O)NCCc2ccccc2)c(=O)c2ccccc21	6.2
Cc1ccc(Oc2ncccc2CO)cc1	8.5
COc1ccccc1N(C)S(=O)(=O)c1ccc(C(=O)OCC(=O)Nc2cc(C)on2)cc1	23.4

Following part:
Structure	Calb biofilm kill
CC(C)N1CCC(N2CCN(Cc3ccc(C#CC(C)(C)O)s3)CC2CCO)CC1 (centres undefined)	14.3
Cc1ccc(C)n1-c1nn(S(=O)(=O)c2ccccc2)c2cccc(F)c12	24.4
COc1ccc(N2CC(O)=C(c3nc(-c4ccccc4)cs3)C2=N)cc1	7.8
Cc1cccc(-n2c(-c3ccncc3)n[nH]c2=S)c1	9.5
COc1cc2ncnc(NCc3cccc(Cl)c3)c2cc1OC	13.0
Cc1sc(NC(=O)CCC(=O)O)c(C(N)=O)c1-c1ccccc1	16.4
Cc1c(CN2CCCC(C(=O)c3cccc(OC(C)C)c3)C2)c(=O)n(-c2ccccc2)n1C (centres undefined)	-4.8
CCc1cccc(OCCn2nc(C(=O)O)c3ccccc3c2=O)c1	4.1
N/C(Cc1ccc(Cl)c(Cl)c1)=N\OC(=O)c1ccc(Br)o1	0.9
Cc1ccc(S(=O)(=O)N2CCCC(C(=O)Nc3ccc(C(=O)O)cc3)C2)cc1Cl (centres undefined)	8.4
Cc1cc(C)cc(NC(=O)C2CCCN2/C=C/C(=O)C(F)(F)F)c1 (centres undefined)	4.8
CCC12CN3CCN(CC(C3)/C1=N\NC(=O)Nc1ccccc1)C2	21.7
CCN(CC)S(=O)(=O)c1ccc2c(c1)N(CC(=O)NCCc1ccc(S(N)(=O)=O)cc1)C(=O)CO2	11.6
CCOC(=O)c1c(CN(C)C)n(-c2ccccc2)c2cc(Br)c(O)cc12	6.0
CC1CCCCC1NC(=O)CSCC(=O)O (centres undefined)	12.8
c1ccc2c(c1)COC(CNC1CCCCC1)OC2	4.8
COc1ccc(C(=O)C(Sc2nnc(C)c(=O)[nH]2)c2ccc(OC)cc2)cc1 (centres undefined)	9.4
CCOC(=O)c1cc(-c2ccc(OC)cc2OC)nn1-c1ccc(C(=O)O)cc1	18.9
O=C1CCC(C(=O)NCc2ccc3c(c2)OCO3)N1 (centres undefined)	8.2
Cc1ccc(C(=O)CSc2nnc(-c3ccccc3N)n2C)cc1C	8.1
O=C(Nc1ccc(Cl)cn1)Nc1ccccc1F	10.5
CCOC(=O)c1c(C)[nH]c(C(=O)COC(=O)CNC(=O)c2ccccc2Cl)c1C	11.5
CCc1cccc(CC)c1NC(=O)COC(=O)c1ccc2c(c1)S(=O)(=O)c1ccccc1C2=O	22.0
Cc1ccc(C)c(NC(=O)c2sc(Cl)nc2C)c1	13.3
COCCCNC(=S)N/N=C/c1ccc(O)cc1	20.9
C#CCNC(=O)C1=C[C@@H](c2csc3ccccc23)C[C@@H](OCc2ccc(CO)cc2)O1	18.9
CCc1ccccc1N1CN(Cc2cccnc2)CNC1=S	0.7
COc1ccc(C(=O)Nc2ccc(S(=O)(=O)N3CCc4ccccc43)cc2)cc1	-2.7
C=CCNC(=O)/C(C#N)=C/c1ccc(C(=O)O)cc1	23.7
CC(C)c1ccc(NC(=O)C2=NNC(=O)CC2)cc1	13.4

Further records follow:
Structure	Calb biofilm kill
Cc1cccc(Nc2nc(N)nc(-c3oc4ccccc4c3C)n2)c1	23.8
COc1ccc(C2C(C(=O)O)c3ccccc3C(=O)N2Cc2ccco2)cc1 (centres undefined)	23.5
COc1ccccc1N(CC(=O)NCC1CCCO1)C(=O)CCC(=O)Nc1nccs1 (centres undefined)	23.6
O=C(c1cc2cc(C(F)(F)F)ccc2s1)N1CCOCC1	24.1
Cn1c(=O)c2c(nc(NCC3CCCO3)n2Cc2ccccc2)n(C)c1=O (centres undefined)	14.5
OC1=C(O)c2nc3cc(F)ccc3nc21	16.8
O=C(/C=C/c1ccc2c(c1)OCO2)Nc1cc(S(=O)(=O)N2CCOCC2)ccc1N1CCOCC1	14.0
O=C(Nc1nc(=O)c2ccccc2s1)c1ccc(F)cc1	16.1
CCCN(CCC)S(=O)(=O)c1nc2nc(C)cc(C)n2n1	9.7
CN(Cc1nc(Cc2cccc(C(F)(F)F)c2)no1)C1CC(C)(C)NC(C)(C)C1	11.5
COc1cc(NC(=S)NCc2ccco2)cc(OC)c1OC	9.0
Nc1c(-c2ccccc2)c(CSc2nc3ccccc3[nH]2)nn1-c1cccc(C(=O)O)c1	8.4
Cc1ccc(N2CC(C(=O)Nc3c(C)n(C)n(-c4ccccc4)c3=O)CC2=O)cc1 (centres undefined)	15.5
CCCCn1c(=O)[nH]c(=O)c2c1nc(-c1ccc(C)c([N+](=O)[O-])c1)n2CC	6.1
NC(N)=NC(N)=Nc1ccc(SC(F)(F)F)cc1	4.7
CC1(c2nnc(-c3ccc(F)cc3)o2)CC(c2ccccc2)=NO1 (centres undefined)	13.4
CC1(OC(=O)CCc2ccccc2)C(=O)C=C2C=C(c3ccc(C#N)cc3)N(C3CCCC3)C=C2C1=O (centres undefined)	19.2
Cc1cc(-c2n[nH]c(=S)n2/N=C/c2c[nH]c3ccccc23)n[nH]1	21.4
CCOc1cc(C=O)ccc1OCC(=O)NC(C)(C)C	3.2
COc1cc(/C=N/NC(=O)c2nc(-c3ccccc3)n(-c3ccccc3)n2)ccc1O	9.9
CC(Nc1cc(N2CCOCC2)ccc1[N+](=O)[O-])c1ccccc1 (centres undefined)	16.9
NS(=O)(=O)c1ccc(NC(=O)CN2C(=O)C3C4C=CC(C4)C3C2=O)cc1 (centres undefined)	10.8
COc1ccc(C2=NN(C(=O)c3cccnc3)C(c3ccccc3)C2)cc1 (centres undefined)	18.2
c1ccc2oc(-c3ccc4nc[nH]c4c3)nc2c1	8.6
O=C(NOC(=O)c1ccccc1F)c1ccc(OC(F)F)cc1	2.3
CC1CCN(S(=O)(=O)N2CCC(C(=O)O)CC2)CC1	16.6
CCOc1ccc(C(CC(=O)O)NC(=O)c2sc3ccccc3c2Cl)cc1 (centres undefined)	6.6
COc1ccc(-c2csc(Nc3ccc(S(=O)(=O)Nc4cc(OC)nc(OC)n4)cc3)n2)cc1	14.0
COc1cccc(C(=O)C2CCCN(C/C=C/c3ccccc3OC)C2)c1 (centres undefined)	29.3
O=C(Nc1ccc(F)cc1F)c1c(C(F)(F)F)ccnc1Oc1cccc(C(F)(F)F)c1	7.4
O=C(CCN1C(=O)S/C(=C\c2cccs2)C1=O)Nc1nccs1	11.8

2 compounds drawn at random from those above, as already listed:
Structure	Calb biofilm kill
COc1ccccc1N(CC(=O)NCC1CCCO1)C(=O)CCC(=O)Nc1nccs1 (centres undefined)	23.6
Cc1ccc(N2CC(C(=O)Nc3c(C)n(C)n(-c4ccccc4)c3=O)CC2=O)cc1 (centres undefined)	15.5

Compounds listed so far that have a cyano group (six):
Structure	Calb biofilm kill
COc1ccc(-c2cc(-c3ccc(OC)cc3)c(C#N)c(SC)n2)cc1	5.4
CCOc1cccc(-c2nn(-c3ccccc3)cc2/C=C(/C#N)C(=O)NCCCn2ccnc2)c1	14.9
CONc1nc(NC(C)(C)C)nc(OCC#N)n1	11.9
Cc1cc(/C=C(\C#N)C(N)=O)c(C)n1-c1ccc(N2CCOCC2)c([N+](=O)[O-])c1	19.3
C=CCNC(=O)/C(C#N)=C/c1ccc(C(=O)O)cc1	23.7
CC1(OC(=O)CCc2ccccc2)C(=O)C=C2C=C(c3ccc(C#N)cc3)N(C3CCCC3)C=C2C1=O (centres undefined)	19.2

In the list so far, two contain bromine.
Structure	Calb biofilm kill
N/C(Cc1ccc(Cl)c(Cl)c1)=N\OC(=O)c1ccc(Br)o1	0.9
CCOC(=O)c1c(CN(C)C)n(-c2ccccc2)c2cc(Br)c(O)cc12	6.0

Source: PubChem BioAssay
